From PubChem BioAssay
VDR inhibitor – blocks the human vitamin D receptor; P11473; VDR-SRC2-3 peptide fluorescence polarization, 2 h; Potency, µM, for the others: max response, negative = inhibition, usual class: inhibitors; 400,000 compounds, 0.93% hits; active = well fitted inhibition curve with a large enough effect; inconclusive = small, poorly fitted or top-dose-only effect, or another doubt; inactive = no such curve, though single readings can be large or run the other way; also: series mostly up to about 120 µM
Target sequence (P11473 whole entry, looked up): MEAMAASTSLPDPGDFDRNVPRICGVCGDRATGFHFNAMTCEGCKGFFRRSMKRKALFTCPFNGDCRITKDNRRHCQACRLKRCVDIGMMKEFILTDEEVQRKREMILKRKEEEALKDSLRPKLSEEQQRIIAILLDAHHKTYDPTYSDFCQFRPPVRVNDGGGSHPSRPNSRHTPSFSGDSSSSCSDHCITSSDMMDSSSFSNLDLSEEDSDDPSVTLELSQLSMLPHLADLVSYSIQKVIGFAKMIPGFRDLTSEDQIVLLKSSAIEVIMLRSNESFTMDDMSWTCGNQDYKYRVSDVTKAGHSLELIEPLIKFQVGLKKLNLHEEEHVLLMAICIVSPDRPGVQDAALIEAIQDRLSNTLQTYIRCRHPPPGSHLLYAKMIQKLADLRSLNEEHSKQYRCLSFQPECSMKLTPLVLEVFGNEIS
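Inhibition of the VDR/SRC2-3 peptide interaction is quantified by fluorescence polarization. Compounds (23 nl, pintool) incubate with the reagents for 2 hours at ambient room temperature.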
* = called active by the depositor; ? = inconclusive; & = joins results of further samples; [ ] = another dose, or the depositor's remark. % is scaled to controls: 0 for no effect and ±100 for the full control effect; potency is read from the fitted curve at half-maximal effect. An excerpt; the hit share may differ from the screen's.

SMILES | VDR inhibitor
CCOc1cc2[nH]c(=O)n(CC3CCC(C(=O)NCCCOC)CC3)c(=O)c2cc1OCC (stereo unspecified) | -3.5%
O=C(c1cnccn1)N(c1ccccc1)C1(C(=O)NC2CCCC2)CCCCC1 | 0.5%
COCCNC(=O)c1cccc(OC2CCN(Cc3ccccc3C)CC2)c1 | 7.4%
COc1cccc(CNC(=O)Cc2ccc(Br)cc2)c1 | -9.2%
CN(C)c1cccc(C(=O)NCC(c2ccco2)N(C)C)c1 (stereo unspecified) | -9.4%
COc1ccc(OCC(=O)NNC(=O)C(=O)Nc2ccccc2)cc1 | 5.3%
COc1cc(NC(=O)c2cccs2)c(OC)cc1NC(=O)Nc1ccc(F)cc1 | 9.5%
Cc1ccc(C2=CC(c3ccc(N(C)C)cc3)n3nnnc3N2)cc1 (stereo unspecified) | 9.0%
Cc1cccc(-n2[nH]c3c4c(ccc3c2=O)C(=O)c2ccccc2C4=O)c1 | -3.7%
COc1ccc2oc3cc(C)[n+]([O-])c(-c4ccc(Cl)cc4)c3c2c1 | -3.8%
Cc1nn(C)c(C)c1S(=O)(=O)N(CC(=O)Nc1nccs1)c1ccc(C(C)C)cc1 | 0.5%
Nc1nc(SCC(=O)c2ccc(Oc3ccccc3)cc2)n[nH]1 | -28.3%
Cc1ccc(-n2nc3c(N4CCC(C(=O)N(C)Cc5ccccc5)CC4)nnc(C)c3c2C)cc1 | 15.0%
O=C(CSC1=NCCN1)Nc1cccc([N+](=O)[O-])c1 | -6.3%
CCSc1nnc(NC(=O)C2CCN(C(=O)c3ccc(F)cc3)CC2)s1 | -25.5%
O=S(=O)(c1ccc(Cl)cc1)N1CCN=C1SCc1cccnc1 | -4.0%
c1ccc(-c2sc3ccccc3c2-c2ccc(OCCN3CCCCC3)cc2)cc1 | -0.3%
CCN1CCc2c(C#N)c(NCc3ccccc3)nc(NCCO)c2C1 | 2.0%
Cc1cccn2c(=O)c(C=NCc3ccco3)c(Nc3ccc(SC(F)F)cc3)nc12 | 0.6%
COC(=O)N1CC(c2ccccc2)CC1=O (stereo unspecified) | 0.9%
Cc1cccc(N2CCN(C(=O)CCS(=O)(=O)c3ccc4c(c3)NC(=O)CO4)CC2)c1C | ?
Cc1ccccc1Nc1c(-c2ccsc2)nc2c(C)cccn12 | -11.2%
O=C(CN1CCN(c2ccc(F)cc2)CC1)Nc1cccc(C(F)(F)F)c1 | 7.7%
O=C(NC(=O)c1cc([N+](=O)[O-])ccc1Cl)C1=C(N2CCCC2)COC1=O | -19.3%
CCOc1cc(CNCCSc2nnnn2C)cc(Br)c1OCc1ccc(F)cc1 | 20.9%
O=C(NCc1ccc(F)cc1)C1CCN(S(=O)(=O)c2ccc(Cl)cc2)CC1 | 4.5%
CCOC(=O)CCSc1nc(C)c2cc(OC)ccc2n1 | 3.8%
Cn1c(=O)[nH]c(=O)c2c1nc(N/N=C/c1ccncc1)n2Cc1ccc(F)cc1 | -27.2%
COc1ccc(S(=O)(=O)NCC(c2ccco2)S(=O)(=O)c2cccs2)cc1F (stereo unspecified) | 2.7%
Cc1cccc(-n2c(-c3ccco3)nc3c(cnn3-c3ccc(F)cc3)c2=O)c1 | -29.0%

Some of the entries above, set out differently.
> CCSc1nnc(NC(=O)C2CCN(C(=O)c3ccc(F)cc3)CC2)s1
  VDR inhibitor = -25.5%
> O=S(=O)(c1ccc(Cl)cc1)N1CCN=C1SCc1cccnc1
  VDR inhibitor = -4.0%
> c1ccc(-c2sc3ccccc3c2-c2ccc(OCCN3CCCCC3)cc2)cc1
  VDR inhibitor = -0.3%
> CCN1CCc2c(C#N)c(NCc3ccccc3)nc(NCCO)c2C1
  VDR inhibitor = 2.0%

(cont.)
SMILES | VDR inhibitor
Cc1cc(C(F)(F)F)nn1CC(=O)NCc1ccco1 | -9.1%
c1ccc2c(c1)nc1n2CCN1CCNC1CCCCC1 | -9.6%
Cn1nnnc1SC1CC(=O)N(c2ccccc2)C1=O (stereo unspecified) | -11.6%
Cc1cc(OCC(=O)NCCO)cc(C)c1Cl | 42.1%[activator]
COc1cc(CNCCc2c[nH]c3ccccc23)ccc1OCc1ccccc1F | -5.5%
C=CCc1ccc(O)c(-c2cc(CC=C)ccc2O)c1 | 1.1%&-20.5%&-0.9%
O=C(Cn1cnc2ccccc2c1=O)N1CCN(Cc2ccccc2)CC1 | -6.2%
CCOc1ccccc1NC(=O)CC1NCCNC1=O (stereo unspecified) | 6.4%
Cn1c2ccccc2c2nnc(SCC(=O)NCc3ccoc3)nc21 | -7.3%
CCOc1ccc(Cl)cc1/C=C1/C(=O)ON=C1C | ?
Cc1ccc(S(=O)(=O)N2CCN(c3ccccc3)CC2)cc1C(N)=O | 4.0%
COc1ccc(C(=O)NCC(=O)N/N=C/c2c(C)[nH]c3ccccc23)cc1 | 10.7%
CCCCNC(=O)O[C@H]1C[C@@H]2CCN3C(=O)CCC[C@H]([C@H]1CC)[C@H]23 | -1.8%
CCCN(CCC)S(=O)(=O)c1ccc(C(=O)Nc2cccc(-c3nc4ccccc4[nH]3)c2)cc1 | 5.8%
Cc1onc(-c2c(Cl)cccc2Cl)c1C(=O)Nc1ccc(Cl)cn1 | -5.5%
Cc1sc2ncnc(Sc3ccccc3C(=O)Nc3ccccc3Cl)c2c1C | -9.4%
COCCn1c(SCC(=O)Nc2cccc(OC)c2)nnc1-c1ccc(Cl)cc1 | -0.3%
Cc1ccc(S(=O)(=O)c2nc(-c3cccs3)oc2NCc2cccnc2)cc1 | -8.2%
Cc1ccccc1NC(=O)c1ccc(S(=O)(=O)N(C)C)cc1 | -0.6%
O=C(Cn1nnc(-c2cccc(C(F)(F)F)c2)n1)NNS(=O)(=O)c1cccc(C(F)(F)F)c1 | 13.1%
Cc1ccc(NC(=O)c2ccc([N+](=O)[O-])o2)c(C)c1 | 0.1%
O=C(Cc1cccc(NC(=O)C2CCCN(C(=O)C3CCC3)C2)c1)Nc1cccc(C(=O)N2CCCCC2)c1 (stereo unspecified) | -7.2%
Cc1c(C(=O)N2CCN(c3ccc(F)cc3)CC2)sc2nc(-c3ccccc3)cn12 | 3.3%
CCCS(=O)(=O)c1c(S(=O)(=O)CCC)c2cc(CC)ccn2c1C(=O)c1ccc(Cl)cc1 | -14.6%
O=C(c1ccc(F)cc1)C1CCN(C(=S)Nc2ccccc2)CC1 | -7.0%
Cc1cc(C)cc(NC(=O)c2ccccc2NC(=O)CCC(=O)O)c1 | 4.5%
CCOC(=O)c1cc(-c2ccccc2)sc1NC(=O)CN1C(=O)NC(CC)(c2ccc(F)cc2)C1=O (stereo unspecified) | -1.1%
CC(=O)/C(=N\Nc1ccccc1)Sc1nnc(-c2ccccc2)n1-c1ccccc1 | 2.1%
CCOc1ccc(CCNC(=O)c2cc(C)nc3c2c(C)nn3-c2cccc(F)c2)cc1 | -2.3%
CC(C)C(C(=O)NCc1ccco1)N(Cc1ccco1)C(=O)CNS(=O)(=O)c1ccc(F)cc1 (stereo unspecified) | 14.1%

The results go on:
| structure | VDR inhibitor |
| --- | --- |
| COc1ccc(-c2nc(SC(CC(=O)NCCO)c3cccs3)n[nH]2)cc1 (stereo unspecified) | -22.2% |
| CN(Cc1cc(Cl)cc(Cl)c1)CC(C(=O)c1ccccc1)c1ccccc1 (stereo unspecified) | -18.6% |
| CCCS(=O)(=O)c1nc(S(=O)(=O)c2ccc(C)cc2)c(NCCCOC(C)C)s1 | 4.3% |
| COCCn1c(NCc2ccco2)nc2c1c(=O)[nH]c(=O)n2C | 1.7% |
| Cc1ccccc1S(=O)(=O)Cc1ccc(C(=O)NCCCN2CCN(C)CC2)o1 | 5.7% |
| CC(=O)N(c1c(C)n(C)n(-c2ccccc2)c1=O)C1(C(=O)NC2CCCCC2)CCCCC1 | 5.5% |
| COC(=O)C(C)N(C(=O)c1ccc(C(=O)c2ccccc2)cc1)c1c(C)cccc1C (stereo unspecified) | -16.9% |
| O=C(OCc1c(Cl)cccc1Cl)c1ccncc1 | -6.2% |
| COc1ccc(Cl)cc1NC(=O)C1CCN(S(C)(=O)=O)CC1 | 10.0% |
| CCN(CC(=O)NCCc1ccc(S(N)(=O)=O)cc1)Cc1nc2cc(OC)c(OC)cc2c(=O)[nH]1 | -6.7% |
| CCOc1cc(S(=O)(=O)NCC2CCCO2)ccc1F (stereo unspecified) | 2.1% |
| CC(=O)c1cccc(NC(=O)c2ccc3c(c2)CCCC3)c1 | -16.0% |
| CCC(=O)Nc1ccc(C(=O)NNC(=O)c2cc([N+](=O)[O-])cc([N+](=O)[O-])c2)cc1 | -10.9% |
| COc1cc(C2c3cc4c(cc3OC(N3CCCC3)C2C)OCO4)cc(OC)c1O (stereo unspecified) | -11.9% |
| COc1cc2c(cc1NC(=O)c1cccc([N+](=O)[O-])c1C)oc1ccccc12 | 31.4%[activator] |
| COc1ccc(-n2nnc3c(=O)n(CC(=O)N4CCCc5ccccc54)cnc32)cc1 | -9.1% |
| O=c1[nH]c(CSc2nnnn2-c2ccc(Cl)cc2)nc2ccccc12 | 14.1% |
| CCCN1Cc2cccc(C(=O)N3CCN(c4ccccc4)CC3)c2C1=O | -2.4% |
| Cc1cccc(Nc2ncnc3nc[nH]c23)c1 | 7.7% |
| CSc1cccc(NC(=O)CN2C(=O)COc3ccc(Cl)cc32)c1 | -18.3% |
| Cc1nc(Nc2ccc(Cl)c(Cl)c2)sc1C(=O)Nc1ccccc1 | ? |
| COc1cccc(NC(=O)COC(=O)c2c3c(nc4ccccc24)CCC(C)C3)c1 (stereo unspecified) | 12.6% |
| CCn1c(SCC(=O)NC2(C#N)CCCCC2)nc2ccccc2c1=O | 3.1% |
| Cc1cc2c(cc1S(=O)(=O)CCC(=O)NC1CCCCC1C)OCC(=O)N2 (stereo unspecified) | -13.9% |
| N#CC1(NC(=O)COC(=O)c2ccccc2SCC(=O)N2CCCC2)CCCCC1 | -10.4% |
| Cc1cccc(N(Cc2ccccc2)C(=O)Cc2ccc(S(=O)(=O)N3CCOCC3)s2)c1 | -14.5% |
| O=C(O)C1CCCCC1C(=O)NCCCc1ccccc1 (stereo unspecified) | -12.9% |
| Cc1cc(C)c(NC(=O)COC(=O)CSc2ccc(Br)cc2C)c(C)c1 | -1.2% |
| CCN(C(=O)CSc1cc(C)c2ccccc2n1)C1CCS(=O)(=O)C1 (stereo unspecified) | 2.8% |
| Cc1cc(SCC(=O)c2ccc(O)c(O)c2)nc2ccccc12 | -26.1% |
| COCCn1c(SCC(=O)NC2CCCC2)nc2cccnc21 | 8.5% |
| NC(=O)CCn1ccc2ccccc21 | -10.1% |
| CCCc1ccc(-c2cc(C(=O)NC3=NCCS3)c3ccccc3n2)cc1 | -15.1% |
| CC(C)(C)C(=O)NC(=S)Nc1ccc(F)cc1 | 2.1% |
| CCOc1ccc(C(=O)N(Cc2sccc2C)C2CCS(=O)(=O)C2)cc1 (stereo unspecified) | 5.3% |
| CCCCOc1ccc(C(=O)Nc2cc(-c3ccc(C)cc3)no2)cc1 | 3.2% |
| Cc1cc(N2C(=O)C(O)=C(C(=O)c3cc4ccccc4o3)C2c2ccc(OC(C)C)cc2)no1 (stereo unspecified) | -0.9% |
| CCN1C(=O)c2ccccc2S(=O)(=O)c2ccc(C(=O)NC(C)C)cc21 | -10.1% |
| CC(C)[C@H](NS(=O)(=O)c1ccccc1F)C(=O)OCC(=O)Nc1cccc(S(N)(=O)=O)c1 | 7.8% |
| CCOc1ccccc1NC(=O)CSc1ccc2nc(-c3ccccc3)cn2n1 | 18.6% |
| O=C(C1CCN(S(=O)(=O)c2cccc3cccnc23)CC1)N1CCc2ccccc21 | -5.3% |
| CC(=O)Nc1cccc(-c2nnc(-c3ccc(C)cc3)o2)c1 | 3.3% |
| Cc1csc(NC(=O)c2cccc(C)c2C)n1 | -3.9% |
| C#CCOCCOCCOCCNc1nc(N2CCN(C(=O)CCCCCCCCCCNC(=O)[C@@H](CCSC)n3cc(CCO)nn3)CC2)nc(N2CCN(C(=O)CCCCCCCCCCNC(=O)[C@H](CCSC)n3cc(CCO)nn3)CC2)n1 | -26.8% |
| COc1ccc(-n2c(=O)cnc3cnc(Nc4ccccc4)nc32)cc1 | -1.1% |
| Nc1nc(Cl)nc2ncn(Cc3ccccc3)c12 | -2.1% |
| O=C(CCNS(=O)(=O)c1ccc2c(c1)CCC(=O)N2)NCc1ccc2c(c1)OCO2 | 22.6% |
| CC(C)CCCC(C)C1CCC2C3C(=O)C=C4CC(O)CC[C@@]4(C)C3CC[C@@]12C (stereo partly specified) | 5.8% |
| CC1(C)NC(=O)N(CC(=O)N2CCCC(C(F)(F)F)C2)C1=O (stereo unspecified) | -14.2% |
| O=[N+]([O-])c1cccc(-c2nnc3ccc4ccccc4n23)c1 | -4.4% |
| CC[C@@]1(O)C(=O)OCc2c1cc1n(c2=O)Cc2cc3c(N)cccc3nc2-1 | -8.0% |
| Cc1ccc(-n2ncc3c(NCCC4=CCCCC4)ncnc32)cc1C | 13.3% |
| CN(c1ccc(C(=O)Nc2ccc3c(c2)OCCO3)cc1)S(C)(=O)=O | -10.5% |
| O=C(NNS(=O)(=O)c1ccccc1Cl)c1nn(-c2ccc(F)cc2)ccc1=O | 3.2% |
| Cc1ccc(N(C(C)C(=O)N2CCC(C)CC2)S(C)(=O)=O)cc1C (stereo unspecified) | -9.5% |
| CCNC(=O)CCSc1nnc(-c2ccco2)o1 | 7.0% |
| Cc1c(C(=O)N2CCc3ccccc32)cnn1C | -9.1% |
| O=c1[nH]cnc2sc(-c3ccccc3)cc12 | -4.0% |
| CCc1ccc(C(=O)COC(=O)CNC(=O)COc2ccccc2)cc1 | 1.8%&-0.5% |
| Cn1ncc(C#N)c1NC(=O)c1cc(-c2ccccc2Cl)on1 | 13.9% |
| O=C(O)c1cnn2c1NC(c1cccs1)CC2C(F)(F)F (stereo unspecified) | -6.4% |
| COc1ccc(CNC(=O)C(C)c2ccc([N+](=O)[O-])cc2)cc1 (stereo unspecified) | -6.0% |
| CCN(CC)c1ccc(C(=O)NNC(=O)CNC(=O)c2ccco2)cc1 | -11.7% |
